Source: PubChem
miR-21 FLuc = miR-21 reporter, rising signal. Potency, µM (series often up to 38.3 µM), inactives show top-dose reporter change, positive = more light. HeLa miR-21 FLuc reporter, luciferase, 48 h. 340,000 tested, under 10 active. AID 2288; active = well fitted rising curve with a large enough effect; inconclusive = small, poorly fitted or top-dose-only effect; inactive = no such curve, though single readings can be large or run the other way;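 note: % of control where 0% means no effect; miR-21 action dims this reporter so a rising signal means less miR-21 action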
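HeLa miR-21-FLuc reporter line, endogenous miR-21; 2000 cells/well in DMEM/10% FBS; compound titration up to ~40uM final, 48 h, 37 degree Celsius; luciferase detection reagent, 15 min lysis, CCD luminescence.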
GLA inh pH 4.5 = inhibitors of human alpha-galactosidase A at pH 4.5; P06280; purified enzyme, 4-MU-alpha-Gal fluorescence, pH 4.5; activity change, negative = inhibition, % at 105 µM; 230,000 tested, under 10 active; inconclusive = small, poorly fitted or top-dose-only inhibition, or a rising curve; inactive = flat fitted curve, though single readings scatter; no compound was filed as active;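 note: 0% = full activity with enzyme and -100% = basal without enzyme; dose as in the result columns while the protocol names 77 µM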
Rango release inh = inhibitors of RanGTP-induced Rango-importin beta complex dissociation; O95149+P62826; Biochemical FRET Rango-importin beta, RanGTP-induced dissociation; Potency, µM (series often up to 46.1 µM), without a hit: at the highest dose activity change, negative = inhibition; actives 0.071% (n = 340,000); active means falling FRET ratio curve, often poorly fitted, with flat reads before Ran was added; inconclusive means other falling curves, or compound fluorescence or quenching; inactive means flat or rising ratio curve;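 note: potency is the fitted concentration of half-maximal effect; % of control where 0% means no effect; nearly all actives have a fitted effect of over 45% in size; -100% = wells without RanGTP and RCC1; the record marks most hits as doubtful in a second field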
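Rango/importin beta premix (0.1/0.25 uM final), PBS + 1 mM DTT + 0.02% Tween-20 + 0.1% BSA; cpd 5 min RT; FRET pre-read; + RanGTP-RCC1 (0.6 uM Ran, 2 mM GTP, 0.2 uM RCC1); 45 min RT; FRET post-read, ex 430, em 486/530 nm.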
Rango-impB inh = inhibitors of Rango-importin beta complex formation; Rango CFP/YFP FRET sensor + importin beta, 45 min; Potency, µM (doses to about 92.2 µM), for inactives: at the top dose inhibition of complex formation; actives 0.031% (n = 340,000); active = rising FRET ratio curve, often small or poorly fitted; inconclusive = mostly compound fluorescence or quenching in the first reads; inactive = flat curves in all reads;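 note: potency is the fitted concentration of half-maximal effect; 0% = DMSO wells and 100% = buffer wells lacking importin beta; nearly all actives have a fitted effect of over 15% in size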
Target sequence (Q14974 whole entry, looked up): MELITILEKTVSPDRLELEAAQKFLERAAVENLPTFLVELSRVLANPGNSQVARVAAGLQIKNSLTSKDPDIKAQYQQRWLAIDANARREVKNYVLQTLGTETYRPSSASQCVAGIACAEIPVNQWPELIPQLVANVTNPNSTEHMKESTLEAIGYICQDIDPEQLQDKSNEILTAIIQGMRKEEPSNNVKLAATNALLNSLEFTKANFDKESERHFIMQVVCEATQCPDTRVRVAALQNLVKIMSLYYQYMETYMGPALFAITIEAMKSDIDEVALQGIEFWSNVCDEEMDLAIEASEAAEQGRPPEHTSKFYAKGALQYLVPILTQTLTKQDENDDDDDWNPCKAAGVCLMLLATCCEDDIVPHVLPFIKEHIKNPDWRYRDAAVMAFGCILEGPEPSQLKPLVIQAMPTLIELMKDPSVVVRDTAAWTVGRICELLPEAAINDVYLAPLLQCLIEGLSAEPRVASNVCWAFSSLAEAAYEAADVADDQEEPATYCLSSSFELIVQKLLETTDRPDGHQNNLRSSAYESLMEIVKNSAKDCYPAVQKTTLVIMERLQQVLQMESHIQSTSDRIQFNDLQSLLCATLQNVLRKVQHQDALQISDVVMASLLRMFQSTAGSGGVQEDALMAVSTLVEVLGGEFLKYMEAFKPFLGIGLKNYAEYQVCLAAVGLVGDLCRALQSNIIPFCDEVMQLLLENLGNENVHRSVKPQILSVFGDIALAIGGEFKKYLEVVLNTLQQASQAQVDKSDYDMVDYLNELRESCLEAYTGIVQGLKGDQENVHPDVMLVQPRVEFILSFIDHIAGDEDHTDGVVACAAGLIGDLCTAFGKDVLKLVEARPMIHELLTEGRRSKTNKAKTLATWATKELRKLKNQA
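Inhibition scored from the CFP 486 nm/YFP 530 nm FRET ratio 45 min after adding 0.125 microM importin beta to 50 nM Rango biosensor preincubated 5 min with compound (room temperature, PBS with DTT, Tween-20, BSA). No-importin wells as positive control.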
Starred values were filed as active, the others as inactive; ? = inconclusive; / = no result given. An excerpt, so the mix of outcomes need not match the whole.

miR-21 FLuc,GLA inh pH 4.5,Rango release inh,Rango-impB inh,SMILES
-1%,-1,5%,2.8%,O=C(c1ccco1)n1nc(-c2ccccc2)nc1NCc1ccco1
0%,/,26%,-0.6%,CC(C)[C@H](NC(=O)[C@@H]1Cc2ccccc2CN1C(=O)OC(C)(C)C)C(=O)NCc1ccco1
-5%,/,2%,-2.8%,CCOc1ccc(/C=C2\SC(=S)N(CCC(=O)Nc3cccc(C(=O)O)c3)C2=O)cc1
-7%,0,-2%,-7.9%,O=C(NC1CC1)C1CCC(=O)N1C1CCCC1 (centres undefined)
7%,/,21%,2.8%,Cc1cccc(NC(=S)NCc2ccccc2)c1C
-6%,/,2%,-1.2%,NC(=O)c1ccccc1NC(=O)CN1CCN(Cc2ccccc2)CC1
-49%,2,-15%,2.3%,CCOC(=O)Nc1ccc(NC(=O)c2ccccc2F)cc1
1%,5,14%,-0.1%,O=C(CSc1nnc(-c2ccncc2)o1)N1CCc2ccccc2C1
7%,0,2%,-2.2%,CC12C(=O)N(c3cccc4cccnc34)C(=O)C1C1C=CC2C1 (centres undefined)
0%,-2,-13%,3.3%,CCN(CCNC(=O)C1CCN(S(=O)(=O)CC)CC1)c1ccccc1
-4%,-6,-10%,?,Cc1cccn2c(=O)c(C=O)c(Sc3ncccn3)nc12
1%,7,-2%,-0.6%,COc1ccc(C(CNC(=O)c2ccc(C)c(S(=O)(=O)N3CCCCC3)c2)N(C)C)cc1OC (centres undefined)
-2%,-1,-13%,1.4%,Nc1nc(SCC(=O)c2c(N)n(Cc3ccccc3)c(=O)[nH]c2=O)n[nH]1
0%,/,2%,-6.3%,CCCNC(=O)c1nn2c(C(F)(F)F)cc(-c3ccccc3)nc2c1Br
-45%,/,14%,-0.4%,Cc1cccc(NC(=O)c2cnn(-c3ccccc3)c2C)c1C
-5%,-3,-2%,-2.1%,COc1cccc(-n2c(Cn3nc(C(F)F)cc3C(F)F)n[nH]c2=S)c1
/,/,6%,?,O=C(COC(=O)C1(c2ccccc2)CCCC1)N1CCNC1=O
/,/,14%,2.4%,O=C(NNC(=O)c1ccccc1O)c1ccc(Cl)c(S(=O)(=O)N2CCCCC2)c1
-5%,/,3%,-3.0%,CCOc1ccc(N(CC(=O)NCCSCc2ccccc2)S(C)(=O)=O)cc1
-19%,6,-12%,?,Cc1cc(/C=N/NC(=O)c2ccc(O)cc2)c(C)n1C1CC1

Some of the entries so far, as tab-separated lines.
molecule	miR-21 FLuc	GLA inh pH 4.5	Rango release inh	Rango-impB inh
O=C(c1ccco1)n1nc(-c2ccccc2)nc1NCc1ccco1	-1%	-1	5%	2.8%
CC(C)[C@H](NC(=O)[C@@H]1Cc2ccccc2CN1C(=O)OC(C)(C)C)C(=O)NCc1ccco1	0%	/	26%	-0.6%
CCOc1ccc(/C=C2\SC(=S)N(CCC(=O)Nc3cccc(C(=O)O)c3)C2=O)cc1	-5%	/	2%	-2.8%
O=C(NC1CC1)C1CCC(=O)N1C1CCCC1 (centres undefined)	-7%	0	-2%	-7.9%
Cc1cccc(NC(=S)NCc2ccccc2)c1C	7%	/	21%	2.8%
NC(=O)c1ccccc1NC(=O)CN1CCN(Cc2ccccc2)CC1	-6%	/	2%	-1.2%
CCOC(=O)Nc1ccc(NC(=O)c2ccccc2F)cc1	-49%	2	-15%	2.3%
O=C(CSc1nnc(-c2ccncc2)o1)N1CCc2ccccc2C1	1%	5	14%	-0.1%
CC12C(=O)N(c3cccc4cccnc34)C(=O)C1C1C=CC2C1 (centres undefined)	7%	0	2%	-2.2%
CCN(CCNC(=O)C1CCN(S(=O)(=O)CC)CC1)c1ccccc1	0%	-2	-13%	3.3%
Cc1cccn2c(=O)c(C=O)c(Sc3ncccn3)nc12	-4%	-6	-10%	?
COc1ccc(C(CNC(=O)c2ccc(C)c(S(=O)(=O)N3CCCCC3)c2)N(C)C)cc1OC (centres undefined)	1%	7	-2%	-0.6%
Nc1nc(SCC(=O)c2c(N)n(Cc3ccccc3)c(=O)[nH]c2=O)n[nH]1	-2%	-1	-13%	1.4%
CCCNC(=O)c1nn2c(C(F)(F)F)cc(-c3ccccc3)nc2c1Br	0%	/	2%	-6.3%
Cc1cccc(NC(=O)c2cnn(-c3ccccc3)c2C)c1C	-45%	/	14%	-0.4%
COc1cccc(-n2c(Cn3nc(C(F)F)cc3C(F)F)n[nH]c2=S)c1	-5%	-3	-2%	-2.1%

Remaining list, next part
miR-21 FLuc,GLA inh pH 4.5,Rango release inh,Rango-impB inh,SMILES
/,/,2%,-2.5%,CCC[C@H]1CC(=O)C=C(c2ccc(OC)cc2)ON1C(=O)OC(C)(C)C
0%,/,4%,-1.7%,COc1cc(CN2CCC(CCC(=O)NC3CC3)CC2)cc(Cl)c1OC
/,/,-6%,3.4%,Nc1ccc(Oc2ccccc2-c2ccccc2)cc1
-10%,/,-29%,-2.7%,CC(=O)c1ccc(OC(=O)N2CCOCC2)cc1
1%,-7,-5%,-2.5%,C=CCn1cc([N+](=O)[O-])nc1C
9%,-2,8%,0.7%,O=C(c1ccc2c(c1)OCO2)C1CCCN(Cc2cccn2-c2cccnc2)C1 (centres undefined)
14%,-4,2%,1.1%,Cc1cc(C(=O)CCl)c(C)n1-c1cccc(S(=O)(=O)N2CCOCC2)c1
16%,/,-16%,3.5%,O=C(Nc1ccccc1Oc1cccnc1)C1CCCN(C/C=C/c2ccc(F)cc2)C1 (centres undefined)
-3%,-10,5%,0.2%,CN1C(=O)SC(Nc2ccc(F)cc2)C1=O (centres undefined)
2%,5,3%,3.3%,CCCNS(=O)(=O)c1ccc(CCC(=O)N2CCCC2)cc1
-52%,6,12%,0.3%,COc1cc(C2Nc3cc(Cl)c(S(N)(=O)=O)cc3S(=O)(=O)N2)ccc1OCc1ccccc1 (centres undefined)
0%,1,1%,-0.9%,CCCCn1c(N)c(N(CCC(C)C)C(=O)CSc2nnc3ccccn23)c(=O)[nH]c1=O
-10%,-3,-11%,-3.7%,CC(NC(=O)Nc1ccc(O)cc1)(C(F)(F)F)C(F)(F)F
-11%,6,-26%,-2.1%,CCOc1ccc(N2C(=O)/C(=C/c3ccc(C)o3)N(C)C2=S)cc1
1%,/,2%,-0.4%,CCOc1ccc(-n2ccc(=O)c(C(=O)Nc3ccc(S(=O)(=O)N4CCOCC4)cc3)n2)cc1
9%,0,-7%,-0.1%,CC(C)CCN1CCN(Cc2nc(-c3ccc(F)cc3)cs2)CC1CCO (centres undefined)
2%,5,0%,1.4%,O=C(N1CCOCC1)N1CCN(CC(O)COc2ccc3ccccc3c2)CC1 (centres undefined)
-2%,4,12%,2.6%,CN(C)CCN1C(=O)C(=O)/C(=C(/O)c2ccc(S(=O)(=O)N3CCOCC3)cc2)C1c1ccccc1 (centres undefined)
2%,-8,-10%,3.6%,CCOc1ccc(Cn2c3ccc(OC)cc3c3nc4ccccc4nc32)cc1OC
0%,-6,30%,1.8%,CC(=O)Nc1ccc(OC(F)(F)C(F)C(F)(F)F)c(NC(C)=O)c1 (centres undefined)

3 structures already listed, ordered by number of heavy atoms, smallest number first:
miR-21 FLuc,GLA inh pH 4.5,Rango release inh,Rango-impB inh,SMILES
-10%,-3,-11%,-3.7%,CC(NC(=O)Nc1ccc(O)cc1)(C(F)(F)F)C(F)(F)F
2%,5,0%,1.4%,O=C(N1CCOCC1)N1CCN(CC(O)COc2ccc3ccccc3c2)CC1 (centres undefined)
16%,/,-16%,3.5%,O=C(Nc1ccccc1Oc1cccnc1)C1CCCN(C/C=C/c2ccc(F)cc2)C1 (centres undefined)

Other compounds
miR-21 FLuc,GLA inh pH 4.5,Rango release inh,Rango-impB inh,SMILES
-51%,8,-10%,1.1%,Cc1cccc(NC(=S)NNC(=O)c2sccc2C)c1
0%,5,-3%,-3.0%,Cc1nnc(SCC(=O)NNC(=O)c2ccc(Cl)cc2)n1CC1CCCO1 (centres undefined)
-6%,-3,-10%,0.1%,Cc1cc(C)nc(NC2=NCC(=O)N2c2ccc(Cl)cc2)n1
0%,-7,-8%,2.8%,COc1cccc2cc(C(=O)C3=C(O)C(=O)N(CCN(C)C)C3c3ccc(Cl)cc3)oc12 (centres undefined)
?,/,5%,?,COc1ccc2c(/C=C/c3cc[n+](C)cc3)c[nH]c2c1
-8%,1,2%,-0.3%,CSc1ccc(C(=S)N2CCN(CCO)CC2)cc1
-7%,3,4%,-3.4%,CCCC(=O)N1CCN(c2ccc(NC(=O)c3cc4ccccc4o3)cc2)CC1
6%,5,0%,-1.3%,C=C1CCN([C@H](C(=O)NCc2ccccc2)C(C)C)S(=O)(=O)c2ccccc21
-5%,-1,6%,-1.1%,NNC(=O)COc1cccc(Oc2ccccc2)c1
-7%,-10,1%,0.0%,Cc1cc(C)c(C(=O)/C=C/c2cccs2)c(=O)[nH]1
3%,-7,-4%,0.8%,O=C(c1ccco1)N1CCN(Cc2cn[nH]c2-c2cccc3ccccc23)CC1
-14%,7,-2%,-0.4%,CCOC(=O)c1c(NC(=O)c2ccnn2C)sc(C)c1C
-19%,-1,?,?,CN1C2C=C3C(C#N)=C(N)C(C#N)(C#N)[C@@H](c4cccs4)C3C1CC2 (some centres undefined)
/,/,10%,?,O=C(c1ccc(Cl)cc1Cl)N1CCOCC1
-5%,-2,-9%,-0.2%,COc1ccc(CN(C)CC(=O)Nc2cc3oc4ccccc4c3cc2OC)c(OC)c1
/,/,-10%,-1.4%,Cc1ccc(NC(=O)c2ccc(COc3ccccc3[N+](=O)[O-])o2)nc1
-41%,10,12%,-3.0%,O=C(CSc1nnc(C2CCCCC2)o1)N1CCCCC1
22%,-1,-3%,3.4%,CCn1ccnc1CN1CCCC(C(=O)c2ccc3cc(OC)ccc3c2)C1 (centres undefined)
/,/,-7%,-2.8%,O=C1c2ccccc2C(=O)c2c1cccc2N1CCN(C/C=C/c2ccccc2)CC1
-35%,-4,5%,-1.4%,CC(C)Oc1cccc(C(=O)NC(=S)Nc2ccc(Cl)c(C(=O)O)c2)c1

Single values from the entries so far.
CCOc1ccc(Cn2c3ccc(OC)cc3c3nc4ccccc4nc32)cc1OC | Rango-impB inh: 3.6%
CC(C)Oc1cccc(C(=O)NC(=S)Nc2ccc(Cl)c(C(=O)O)c2)c1 | GLA inh pH 4.5: -4
CC12C(=O)N(c3cccc4cccnc34)C(=O)C1C1C=CC2C1 (centres undefined) | miR-21 FLuc: 7%

Later entries
miR-21 FLuc,GLA inh pH 4.5,Rango release inh,Rango-impB inh,SMILES
-7%,-5,/,/,O=C1C(=O)N(CCCn2ccnc2)C(c2ccccn2)/C1=C(/O)c1ccccc1 (centres undefined)
-10%,2,1%,-0.3%,COc1cc(CNc2nc3ccccc3[nH]2)cc(OC)c1OC
-6%,5,-18%,-0.8%,NC(=O)c1c(NC(=O)c2ccc(S(=O)(=O)N3CCOCC3)cc2)sc2c1CCCCC2
?,-15,-11%,-1.5%,CCCC(=O)N1CCN(c2ccc(NC(=O)c3cc4ccccc4o3)cc2Cl)CC1
-14%,-8,-1%,-1.4%,Fc1ccccc1-c1nc(-c2cnccc2C(F)(F)F)no1
-43%,4,0%,3.8%,CCOc1ccc(-c2nnc(-c3ccccc3)o2)cc1
1%,/,-10%,3.4%,CC(=O)c1cccc(NC(=O)CN2C(=O)COc3ccc(S(=O)(=O)N4CCOCC4)cc32)c1
-37%,1,13%,0.1%,COc1ccc(Nc2cc(C)nc(N)n2)cc1
13%,-3,-5%,-1.7%,CCOc1ccc(S(=O)(=O)Nc2cccc(N(C)S(C)(=O)=O)c2)cc1
/,/,-6%,-0.8%,Cc1ccc(C(c2cc(Br)ccc2O)N2CCSCC2)cc1 (centres undefined)
/,/,7%,-0.5%,CCOC(=O)C1CCN(S(=O)(=O)NC[C@H]2O[C@@H](n3cnc4c(N)ncnc43)[C@H](O)[C@@H]2O)C1 (some centres undefined)
/,/,14%,6.5%,CN(c1ccccc1)S(=O)(=O)c1cccc(NC(=O)CCNC(=O)c2ccc([N+](=O)[O-])cc2)c1
